Compound activity deposited in PubChem by National Center for Advancing Translational Sciences (NCATS).
Sfp PPTase inh – inhibitors of Bacillus subtilis Sfp phosphopantetheinyl transferase | Q9F4F7 | AID 1490 | Potency, µM, without a hit: max response, negative = inhibition, most hits filed as inhibitors | Biochemical Sfp PPTase activity, qHTS | 310,000 tested, 3.5% active; active = well fitted inhibition curve with a large enough effect; inconclusive = small, poorly fitted or top-dose-only effect, or another doubt; inactive = no such curve, though single readings can be large or run the other way;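 note: the enzyme is Sfp with the accession as filed and its product quenches rhodamine fluorescence; potency is the fitted concentration of half-maximal effect; 0% = enzyme reaction without inhibitor and -100% = no enzyme wells; top concentration of the series not given in the record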
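After 15 min at room temperature with compound, 15 nM Sfp received 5 uM rhodamine-CoA plus 12.5 uM BHQ-2-ybbR (50 mM Hepes pH 7.6, 10 mM MgCl2). Rate came from the fluorescence difference over 30 min, ex 525/em 598 nm.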
TRPV1 potentiator – human TRPV1 potentiation | TRPV1-expressing cells, Fluo-8 calcium influx, capsaicin EC20 potentiation; host cell line not named in the record; control for the full effect not named in the record | potentiation, % at 8.33 µM | 320,000 tested, 0.02% active | AID 540277; active means potentiation above 80%; inconclusive means 30% to 80%; inactive means below 30%; note: 0% is about no effect
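TRPV1-expressing cells were cultured overnight at 35.5C and loaded with Fluo-8 calcium dye for 40 to 90 min at room temperature. After a 10 s baseline, compound was added and calcium influx was read kinetically for 3 min (ex 480/em 520 nm).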
Six1-Eya2 blk – Six1/Eya2 interaction inhibition; AlphaScreen GST-Six1/His-Eya2 binding, biochemical; hits give low values; control for the full effect not named in the record; Q15475+O00167; activity change, % (concentration not given with the values); AID 651725; 360,000 tested, 0.56% active; in the data active = activity change below about -65%; inconclusive = about -30% to -65%; inactive = above about -30%; note: % is set by controls: 0 for no effect and ±100 for the full control effect
Target sequence (O00167 whole entry, looked up): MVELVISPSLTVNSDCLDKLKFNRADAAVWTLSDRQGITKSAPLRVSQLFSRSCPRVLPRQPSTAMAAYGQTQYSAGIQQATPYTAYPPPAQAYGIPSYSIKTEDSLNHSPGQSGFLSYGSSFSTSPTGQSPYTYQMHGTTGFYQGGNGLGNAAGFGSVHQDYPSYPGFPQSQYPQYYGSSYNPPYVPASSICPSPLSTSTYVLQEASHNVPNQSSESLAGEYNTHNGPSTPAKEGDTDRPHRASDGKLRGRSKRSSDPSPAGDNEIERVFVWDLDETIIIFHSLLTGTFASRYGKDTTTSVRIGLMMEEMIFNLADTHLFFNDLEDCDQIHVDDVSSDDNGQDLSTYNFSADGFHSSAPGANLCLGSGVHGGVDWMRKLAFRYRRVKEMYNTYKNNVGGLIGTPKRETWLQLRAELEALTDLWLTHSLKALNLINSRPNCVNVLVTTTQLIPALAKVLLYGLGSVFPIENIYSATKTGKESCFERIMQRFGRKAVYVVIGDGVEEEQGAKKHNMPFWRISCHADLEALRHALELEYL
Target sequence (Q15475 whole entry, looked up): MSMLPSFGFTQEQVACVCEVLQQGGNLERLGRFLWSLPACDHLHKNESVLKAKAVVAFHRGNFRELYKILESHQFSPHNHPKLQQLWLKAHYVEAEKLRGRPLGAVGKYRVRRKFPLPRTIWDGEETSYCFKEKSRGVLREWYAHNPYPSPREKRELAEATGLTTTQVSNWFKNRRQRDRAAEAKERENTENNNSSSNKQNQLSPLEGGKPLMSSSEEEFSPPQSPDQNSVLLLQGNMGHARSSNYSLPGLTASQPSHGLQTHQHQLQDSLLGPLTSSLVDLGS
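GST-Six1 + His-Eya2 (5X stock: 250/500 nM); Tris pH 8.0, 300 mM NaCl, 0.05% BSA, 0.02% Tween 20; GSH donor/Ni acceptor beads; 1 h 37 °C dark; AlphaScreen readout.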
CtBP-E1A inh – inhibitors of CtBP/E1A interaction; AlphaScreen GST-E1A/His-CtBP binding, 1536-well; hits give low values; control for the full effect not named in the record; activity change, % (concentration not given with the values); 340,000 tested, 0.49% active; AID 651724; in the data active means activity change below about -65%; inconclusive means about -30% to -65%; inactive means above about -30%; note: % is set by controls: 0 for no effect and ±100 for the full control effect
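In 5 uL wells, 23 nL compound meets equimolar GST-E1A and His-CtBP (5X stock 125 nM each) for 2 h, 37 °C. Beads (5X, 50 ug/mL) then 1 h, 37 °C, dark.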
PINK1 expr mod – modulators of PINK1 expression | PINK1 immunofluorescence, high-content cytometry, 24 h | Potency, µM (series often up to 76.6 µM), for inactives: top-dose activation (PINK1 increase), hits mostly activators | 410,000 tested, 0.2% active | AID 624263; active = well fitted activation curve with a large enough effect; inconclusive = small, poorly fitted or top-dose-only effect; inactive = flat fitted curve, though single readings scatter; cell line not stated here;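 note: potency is the fitted concentration of half-maximal effect; % of control where 0% means no effect; nearly all actives have a fitted effect of over 65% in size; a mitochondrial uncoupler was the plate control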
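Compound titrations (5 concentrations, 24 h) on a stable cell line; DMSO and CCCP controls. Endpoint: fixed-cell PINK1 immunofluorescence with mitochondrial, cell and nuclear markers, scanned by microplate cytometer.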
D2 potentiator – positive allosteric modulators of human D2 dopamine receptor | DiscoveRx D2 beta-arrestin cells, luminescence, 90 min; 100% = 57 uM dopamine signal | potentiation, % (no concentration beside the values) | 360,000 tested, 0.23% active; active = potentiation of 50% or more; inconclusive = 30% to 50%; inactive = 30% or less;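 note: compound concentration not given in the record; tested on top of an EC20 dose of dopamine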
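PathHunter D2 cells, attached overnight at 37 deg C, received compound in DMSO plus dopamine at EC20 (50 nM final) for 90 min at 37 deg C. Beta-arrestin recruitment was read as luminescence after 1 h with detection reagent at ambient temperature.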
D2 ag – activates the human D2 dopamine receptor. 360,000 tested, 0.084% active. AID 624465. DiscoveRx PathHunter D2 beta-arrestin, luminescence, 90 min; 100% = 57 uM dopamine signal. P14416. activation, % (test concentration not listed); in the data active = activation above about 40%; inconclusive = about 15% to 40%; inactive = below about 15%; note: compound concentration not given in the record; the text of the record calls up to 30% inactive
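DiscoveRx PathHunter D2 beta-arrestin cells (2,100/well) attached overnight, then compound-stimulated 90 min at 37 C in HBSS/10 mM HEPES/0.1% Tween-20 buffer; beta-galactosidase complementation read by luminescence after 1 h at ambient temperature. Dopamine 57 uM final (EC100) as control.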
Active calls of the source: *; ? = inconclusive; nt = no result given; & = joins results of further samples; [ ] = another dose, or the depositor's remark. Compounds as they come; about 3.7% have a hit in one of these screens.

SMILES	Sfp PPTase inh	TRPV1 potentiator	Six1-Eya2 blk	CtBP-E1A inh	PINK1 expr mod	D2 potentiator	D2 ag
CCCNC(=O)C(=O)Nc1ccc(N(C)C)cc1	-4.5%	-4.0	1.5	12.8	3.1%	-0.4	-1.0
COC(=O)c1ccc(COc2cccc(C)c2C)cc1	11.3%	1.2	30.9	21.1	1.0%	0.2	0.3
C#CCOCCOCCOCCNc1nc(N2CCN(C(=O)Cn3cc(CCCN=C(N)N)nn3)CC2)nc(N2CCN(C(=O)[C@H]([C@@H](C)CC)n3cc(CCCCN)nn3)CC2)n1	nt	25.0	5.1	-1.3	1.8%	-17.4	-0.8
O=C(NC1CCCC1)c1ccc(CSc2nc3ccncc3n2Cc2ccc(F)cc2)cc1	1.2%	13.7	-1.6	1.6	-0.2%&0.1%	0.8	0.9
N#CC(c1ccccc1)N(CCCCl)C(=O)c1ccc(Br)cc1 (stereo not given)	5.7%	9.1	2.4	nt	3.5%	-4.8	5.9
COc1cccc2sc(Nc3nc(C)c(C(C)=O)s3)nc12	-17.0%	19.9	-1.0	0.8	-2.2%	-10.6	-2.7
O=C(c1cccc(N2C(=O)C3C4C=CC(C4)C3C2=O)c1)N1CCN(c2ccccc2F)CC1 (stereo not given)	17.5%	0.0	3.7	4.6	-0.6%	-2.7	0.8
CCOC(=O)c1ccccc1N/C=C1\CCCCC1=O	-4.6%	2.4	-10.2	13.3	nt	-22.0	-0.4
C=CCn1c(SCC(=O)c2c(N)n(C)c(=O)n(C)c2=O)nnc1-c1ccccc1F	10.1%	-8.9	6.3	nt	-0.7%	-9.8	6.4
Cc1nc2ccccc2c2oc(C(=O)Nc3ccc4c(c3)OCCO4)cc12	?	2.8	?	-27.5	?	-1.9	-6.2
CC(=O)C1=C(O)C(=O)N(CCN(C)C)C1c1ccc(Cl)cc1 (stereo not given)	12.8%	?	3.5	3.6	5.3%[38.3 µM]	-2.1	0.0
O=S(=O)(c1ccccc1)c1nc(-c2cccs2)oc1NCc1cccnc1	nt	-0.2	-6.7	1.0	-0.3%	-32.3	-4.5
COc1ccc(-c2noc3c2-c2nc(-c4cccc(C)c4)sc2CC3)cc1	-13.3%	?	10.4	5.7	4.8%	-3.4	-1.5
CN(C)CCNC(=O)c1cccc(-c2cnc3c(NC=O)cc(-c4ccc(S(C)(=O)=O)cc4)cn23)c1	nt	nt	0.8	-5.1	-0.8%	-8.5	-2.7
CCOc1ccc(C2NC(=S)NC3=C2CCc2ccccc23)cc1 (stereo not given)	-0.6%	0.0	-16.7	-14.3	4.7%	-3.1	-0.7
CC1CCCN(S(=O)(=O)c2ccc3c(c2)CCN3C(=O)C2CCC2)C1 (stereo not given)	10.5%	20.8	3.6	1.9	0.7%	11.1	-1.2
COCCN(C(=O)COC(=O)c1ccccc1Cc1ccccc1)c1c(N)n(Cc2ccccc2)c(=O)[nH]c1=O	nt	10.0	4.8	-24.4	-1.7%	-11.5	-3.0
Cc1ccc(Cn2nc(C)cc2C(=O)Nc2ccccc2Cl)cc1	-12.9%	12.8	10.6	10.7	22.5%	-3.6	0.2
CNC(=S)N(CCc1c(C)[nH]c2ccc(F)cc12)Cc1cccnc1	6.8%	-3.3	-3.2	nt	-0.9%	-10.6	6.1
CCCCn1c(NC(=O)c2ccccc2)nc2ccccc21	4.9%	-6.8	7.0	4.1	nt	9.6	-2.0
COc1ccnc(Oc2ccc(F)cc2)c1C(=O)N/C=N/OCc1c(Cl)cccc1Cl	2.7%	?	-10.3	-10.9	nt	-22.0	-4.7
COc1cccc(Oc2ccc(S(=O)(=O)N3CCCC3)cc2[N+](=O)[O-])c1	7.2%	-0.8	-11.8	-12.4	0.2%	-8.5	0.7
O=C(NNc1ccc(Cl)cc1)c1c(F)cccc1Cl	16.6%	-8.3	-4.9	-1.9	5.8%	-8.9	-5.7
COc1ccc(N2CCN(C(=O)CSc3nnc(-c4ccco4)n3C)CC2)cc1	8.1%	3.6	7.1	-8.6	0.8%	-3.3	-1.8
COc1ccc([C@@H]2C[C@H](c3ccccc3)Oc3cc(C)cc(C)c32)cc1	20.8%	28.8	13.0	8.7	8.0%	-2.6	3.4
COCC(=O)Nc1cc(C)cn(Cc2ccc(F)cc2)c1=O	14.8%	7.1	-1.5	11.3	4.1%	-2.3	-3.8
Cc1cc(C)c(C)c(S(=O)(=O)NC(C(=O)O)C(C)C)c1C (stereo not given)	14.9%	-1.8	1.6	nt	0.1%	-1.0	-1.1
O=C1CSC(=S)N1Cc1cccnc1	-26.9%	4.4	-1.6	-5.6	9.0%	18.7	1.1
O=C(COc1cc2oc(=O)c3c(c2cc1Cl)CCC3)Nc1ccccn1	-4.2%	6.9	0.1	-5.9	?	-8.2	-4.3
Fc1ccc(-c2ccc3c(c2)C2CC3CCN2)cc1 (stereo not given)	nt	nt	6.8	-3.9	2.0%	-3.8	-1.4
O=C(C[C@@H]1C/C=C\CCCC(=O)OC[C@@H](c2ccccc2)NC1=O)NCCO	nt	nt	3.9	6.8	5.4%	4.3	0.9
COc1ccccc1CC(NC(C)=O)C(=O)NC1CCN(C(=O)c2ccc(C)cc2)CC1 (stereo not given)	13.7%	-26.0	1.3	-4.8	-0.7%	-7.9	0.1
C[C@H](CO)N1C[C@H](C)[C@@H](CN(C)S(C)(=O)=O)Oc2ccc(NC(=O)c3ccncc3)cc2C1=O	nt	nt	-8.9	0.1	-0.3%	-3.4	-3.6
O=[N+]([O-])c1ccc(Oc2cccnc2)nc1	24.6%	nt	4.5	-20.2	1.0%	-0.7	6.4
COc1ccc(NS(=O)(=O)c2cccc(C(=O)NCCc3ccc(S(N)(=O)=O)cc3)c2)cc1	nt	-3.9	-10.7	nt	-0.7%	-1.8	-3.1
CC(=O)NCCc1ccc(O)cc1	0.6%	-12.0	10.7	1.3	1.2%	-1.9	-1.4
COc1cc(C(=O)Nc2c(C(=O)O)[nH]c3ccc(C)cc23)cc(OC)c1OC	-0.7%	7.2	-18.7	-25.1	1.3%	-9.5	-0.4
CCc1nc(SCC(=O)NNC(=O)c2ccc(OC)cc2)c2ccccc2n1	12.4%	2.1	-7.4	-14.8	-1.1%	-10.1	-2.6
O=C(Nc1ccccc1Cl)c1ccc2nsnc2c1	2.7%	-13.1	-2.8	-4.0	1.0%	-11.8	3.8
O=C(CSc1nnc2ccc(-c3ccccn3)nn12)Nc1ccccc1F	nt	13.0	10.5	3.3	17.6%	-10.3	-1.1
C/C(=N\NC(=O)c1c(Cl)cnn1C)c1cccc(NC(=O)COc2ccccc2)c1	-27.0%	-4.4	-0.8	-2.8	0.9%	-3.1	0.0
Cc1ccc(OC(=O)CCC(=O)Nc2ccc(S(=O)(=O)Nc3cc(C)on3)cc2)cc1	5.0%	20.1	-3.1	-1.8	0.3%[38.3 µM]	-1.2	0.8
Cc1ccc(S(=O)(=O)N2CCN(C(=O)CN3C(=O)c4ccc([N+](=O)[O-])cc4C3=O)CC2)cc1C	nt	-3.3	-0.3	nt	2.2%	3.4	4.2
O=C(CN1C(=O)CCC1=O)Nc1ccc2c3c(cccc13)CC2	3.2%	-3.0	3.9	19.2	-1.9%	-4.8	-2.9
O=C(Nc1ccncc1)Nc1ccc(F)c(Cl)c1	-2.4%	-18.0	5.5	nt	15.0%	-9.8	1.8
Cc1ccc(-c2nn(-c3ccccc3)cc2NC(=O)CCl)cc1	-14.0%	5.3	15.5	22.6	1.5%	-3.7	-7.2
COC(=O)CCCC[C@@H]1O[C@H](CCc2ccccc2)Cc2[nH]c(=S)[nH]c(=O)c21	nt	nt	0.1	-2.3	-0.2%	nt	nt
COc1ccc([N+](=O)[O-])cc1NC(=O)c1ccccc1N(C)S(C)(=O)=O	15.2%	-6.4	-0.5	1.8	5.2%	-12.3	0.4
Nn1cc(-c2ccccc2)nc1SCC(=O)NCC1CCCO1 (stereo not given)	7.5%	-1.3	7.4	2.5	0.8%	4.6	2.6
CCC(=O)N1CCN(c2cc(N3CCN(C)CC3)c(F)cc2[N+](=O)[O-])CC1	14.5%	1.4	-0.5	-3.5	-0.3%	-11.6	-2.9
CCCCSc1n[nH]c(=S)c2nc[nH]c12	nt	nt	26.3	0.0	-1.4%	-16.2	0.9
Cc1ccc(C2/C(=C(\O)c3ccc4c(c3)OCCO4)C(=O)C(=O)N2Cc2cccnc2)cc1 (stereo not given)	14.8%	-8.2	1.4	8.9	1.6%	-2.8	0.0
CCCCCCCCN1C(=O)[C@H](CC(=O)NCCCN2CCCC2=O)C[C@@]2(C(=O)OCC)CCCC=C12	nt	nt	2.0	-6.8	2.2%	nt	nt
COc1cccc(CN(CC(=O)NCc2ccccc2)S(=O)(=O)CCl)c1	nt	-2.9	9.3	1.4	0.1%	-6.8	-0.4
CCc1ccc(NC(=O)Cn2c(=O)c3cccn3c3ccccc32)cc1	-5.9%	11.7	-3.2	nt	-0.8%&3.5%	-6.3	-6.8
CN(CCCCCCN(C)Cc1ccccc1O)Cc1ccccc1O	?	?	-1.8	nt	1.8%	-57.3	-26.3
COc1ccccc1CC(=O)N1CCN(c2ccccc2F)CC1	2.7%	-0.2	-2.5	nt	-0.2%	-19.7	-3.1
CC[C@H](C)[C@H](NC(=O)[C@H](Cc1ccc(O)cc1)NC(=O)[C@@H](N)C(C)C)C(=O)N[C@@H](Cc1cnc[nH]1)C(=O)N1CCC[C@H]1C(=O)N[C@@H](Cc1ccccc1)C(=O)O	-11.7%	-6.5	4.5	-0.9	4.6%	-4.2	5.9
C1=CC2c3ccccc3NC(c3ccncc3)C2C1 (stereo not given)	31.6µM*	-19.3	-15.9	?	-0.9%	70.4*	14.1
CCOC(=O)c1cnc(SCC(=O)OC)nc1N	-2.7%	3.9	20.0	0.0	1.6%	-4.0	1.0
COc1cccc(CNC(=O)c2ccccc2SCC(=O)N2CCCC2)c1	nt	-2.2	1.6	-1.5	2.0%	-29.5	-4.6
CN(C)c1ccc(S(=O)(=O)N2CCCCC2)cc1NC(=O)CCNC(=O)c1ccc(Cl)cc1	nt	3.4	5.6	-2.9	-0.3%	-6.9	-1.8
